# High-throughput results: PubChem BioAssay, Center for Chemical Genomics, University of Michigan
# HIV TAR-Tat: HIV-1 TAR-Tat binding disruption. AID 1259389. 100,000 compounds, 0.6% hits. z-score (concentration not given with the values). HIV-1 TAR RNA, Tat peptide displacement FRET; hits give high values;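 also: score is relative to mean and SD of negative controls; some compounds called inactive have numbers as strong as hits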
# CDC25B-CDK2 inh: human CDC25B-CDK2/CyclinA binding inhibition | HTRF CDC25B-CDK2/CyclinA binding, anti-His/anti-Flag; hits give high values | z-score (test concentration not listed) | 94,000 compounds, 0.72% hits | AID 1259370;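 also: score is relative to mean and SD of negative controls; strong numbers were not always called active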
# Numbers without * were called inactive; / = not tested or not shown.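 The calls were made as follows: active = z-score from 3 up in half or more of its runs; inactive = the rest.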
# The line under a structure holds: HIV TAR-Tat	CDC25B-CDK2 inh
Cc1c(Cl)c([N+](=O)[O-])nn1CC(=O)Nc1ccc2c(c1)OCO2
  0.41	0.25
O=C(NC1CC1)c1ccc2c(c1)CCN2S(=O)(=O)c1ccc(Cl)cc1
  1.4	-0.6
Cc1ccn2c(C(=O)O)c(C)nc2c1
  /	-0.43
COC(=O)c1ccc(OC(=O)c2sc3ccccc3c2Cl)cc1
  0.55	-1.1
Cn1c(=O)c(=O)n(C)c2cc(S(=O)(=O)c3ccc(F)cc3)c(N)cc21
  2.4	/
CS(=O)(=O)Nc1ccc2[nH]c(=O)oc2c1
  0.23	/
CCc1cc2c3c([nH]c2cc1S(=O)(=O)N1CCN(C2CCCCC2)CC1)CC(C)(C)CC3=O
  2	/
COc1ccc(/C=C/c2nc3ccccc3n(C)c2=O)cc1OC
  -1.9	9.4
O=c1c(S(=O)(=O)c2ccc(F)c(Cl)c2)c[nH]c2cc(F)ccc12
  -3.1	-1.2
O=C1CCCC2=C1C(c1ccco1)N(C(=O)Nc1ccc(F)cc1)c1ccccc1N2 (centres undefined)
  2.7	/
Cc1cc2ccccc2n1CCNC(=O)C(=O)c1c[nH]c2ccccc12
  4.2	-2.1
CCC1(C)CC(CCNCc2ccccc2O)(c2ccccc2OC)CCO1 (centres undefined)
  /	0.17
COc1ccc(OC)c2c1nc1n2C(O)C=C(C(C)(C)C)S1 (centres undefined)
  -1.1	-2.1
CCn1cc(C2=NOC(C(=O)N3CCc4ccccc4C3)C2)c(C)n1 (centres undefined)
  -0.02	-1.1
Cc1ccc(C(=O)N(c2ccccc2)n2c(-c3cccc([N+](=O)[O-])c3)csc2=S)cc1
  /	-0.13
Cc1cc(N2CCOCC2)nc(-n2cnc(SCCOc3ccccc3C)n2)n1
  1.3	-0.63
CCOC(=O)CNC(=S)NN(C)C
  /	-0.33
O=C(c1ccc2nc(N3CCOCC3)sc2c1)N1CCOCC1
  0.67	-1.4
CCCCC(=O)Nc1nnc(SCc2cc(=O)n3oc(C)cc3n2)s1
  -0.21	/
Cc1c(C(=O)Nc2sc3c(c2C(=O)NCC2CCCO2)CCC3)oc2ccccc12 (centres undefined)
  -0.47	/
Nc1cccc(-c2cc3c(Oc4cccc(O)c4)ncnc3[nH]2)c1
  1.8	/
CCCC(=O)N1C(=O)C(=O)c2ccccc21
  -0.3	1.4
c1cc(Nc2ncnc3sc4c(c23)CCC4)ccn1
  /	-2.8
COc1ccc2c(c1)C(=O)N(c1ccc(C)cc1)C(=O)C2
  /	-2.6
O=C(Nc1ccc(-c2cn3c(n2)SCC3)cc1)c1cccnc1Oc1ccccc1
  /	-1.8
COc1ccccc1/C=C/c1nn2c(C(C)C)nnc2s1
  1.1	0.2
CCCN1C(=O)C2(/C(=C(/O)c3ccc(C)cc3)C(=O)C(=O)N2CCCN(C)C)c2ccccc21 (centres undefined)
  1.3	-1.4
COc1ccc(C(=O)c2c(N)sc3c2CCCC3)cc1
  -6.3	-1.4
COC(=O)C1C(=O)C2=C(CC1C)NC(=O)CC2c1ccc2c(c1)OCO2 (centres undefined)
  1.2	1.1
CSc1cccc(-c2nnc(NC(=O)c3ccc4c(c3)OCCO4)o2)c1
  -0.18	/
O=C(Nc1ccc(F)cc1)N1CCC(CN2CCc3ccccc3C2)CC1
  0.18	/
FC(F)(F)c1nnc2sc(-c3ccco3)nn12
  1.6	-1.4
NC(=O)C1CCN(C(=O)c2cnn(-c3ccccc3)c2-n2cccc2)CC1
  -0.49	0.14
CC1(C)CC(=O)C2=C(C1)Nc1n[nH]c(-c3ccccc3)c1C2c1cccs1 (centres undefined)
  0.24	0.95
O=C1NC(=O)C(Nc2cccc(Cl)c2)S1 (centres undefined)
  1.1	0.24
Cc1cc2c(cc1S(=O)(=O)NC1CCCCC1C)OCC(=O)N2 (centres undefined)
  0.84	/
COc1cc(-c2nc3ncccn3c2Nc2ccccc2)ccc1O
  1.7	0.98
O=C1/C(=C/c2csc3ccccc23)CCc2ccccc21
  /	-2.8
O=C(Nc1cc(C(F)(F)F)cc(C(F)(F)F)c1)c1ccco1
  /	-0.89
COc1ccc(N2C(=O)CSC2c2ccc(F)c(F)c2)cc1 (centres undefined)
  /	0.07
Cn1cc(S(=O)(=O)NC2CCCCC2)cc1C(=O)NC1CCCCC1
  1.1	/
COc1ccc2nc(NC(=O)c3ccco3)sc2c1
  3.2	/
Cc1ccc(S(=O)(=O)N2CCN(C(=O)CN3CCOCC3)C2)cc1
  /	-1.6
CCOCCCNC(=O)c1cc2sc(Cl)cc2n1CC
  /	-0.64
Nc1nnc(SCc2c(-c3ccccc3)nnn2-c2ccc(F)cc2F)s1
  /	-1.5
Cc1ccc(N2C(=O)c3cccnc3C2Nc2ccc(C)cc2Cl)cc1 (centres undefined)
  0.14	-0.49
O=C(CCSc1ccc(Cl)cc1)c1ccc(Cl)cc1
  /	-1.4
O=c1oc2c(Cl)cc(NS(=O)(=O)c3ccc(F)cc3)cc2s1
  0.63	-2.3
CCOC(=O)c1cc(S(=O)(=O)N2CCN(c3ncccn3)CC2)[nH]n1
  1.5	/
CCc1nc(CN2C(=O)COc3ccc(S(=O)(=O)N4CCc5ccccc5C4)cc32)no1
  0.17	/
Cn1nc(C(C)(C)C)cc1C(=O)NCc1ccc2c(c1)CCO2
  /	-1
Nc1ccc(Nc2nc(-c3ccc(Cl)cc3)cs2)cc1
  /	0.37
O=C(Cn1cc(S(=O)(=O)Cc2cccc(Cl)c2)c2ccccc21)N1CCc2ccccc21
  -0.87	/
COc1ccc2ncc3c(-c4ccc(C)cc4)n[nH]c3c2c1
  -0.36	/
Fc1cc(F)cc(-c2noc3ncnc(NCCN4CCCCC4)c23)c1
  0.19	/
Cc1ccc(C)c(Cn2c(C)c(CNCc3cccs3)c(C(=O)O)c2C)c1
  1.5	/
O=C(Nc1ccc(-c2nc(-c3ccccc3)c3cc(NC(=O)c4cccs4)ccc3n2)cc1)c1cccs1
  /	-6.3
Cc1cc(C)c(S(=O)(=O)N(C)Cc2nc(-c3ccc(Cl)cc3)no2)c(C)c1
  1.8	-1.2
CCCCSc1nnc2c(n1)OC(C)N(C(C)=O)c1ccccc1-2 (centres undefined)
  /	0.51
CC1=C(c2cccc(Cl)c2)S(=O)(=O)N=C1Nc1cccc(C)c1C
  0.62	-0.7

# Later entries:
# The line under a structure holds: HIV TAR-Tat	CDC25B-CDK2 inh
O=C1Nc2ccccc2S(=O)(=O)N1Cc1ccc(Br)cc1
  1.2	/
CN(C)CCN(Cc1ccccc1)C(=O)Cn1cnc2onc(-c3ccc(Cl)cc3)c2c1=O
  0.47	-5.2
NC(=O)C1CCN(C(=O)C(=O)c2c[nH]c3ccccc23)CC1
  /	-2.6
COc1ccc(-c2ccc(OC)cc2C#N)cc1
  /	-1.8
CSc1ncc(C(=O)NCc2ccc(F)cc2)c(C(F)(F)F)n1
  1	/
CNC(=O)Nc1ccc(C2SCCS2)cc1
  /	-2
O=C(C1CCCN(S(=O)(=O)c2cccnc2)C1)N1CCn2c1nc1ccccc12 (centres undefined)
  /	-0.67
O=C(Cn1cc(S(=O)(=O)c2ccc(Cl)cc2)c(=O)c2ccccc21)Nc1ccc2c(c1)OCO2
  1.5	-0.18
Cn1c(=O)c2c(-c3ccccc3Cl)n(-c3ccc(Cl)cc3)cc2n(C)c1=O
  -0.16	-0.43
COc1ccc(S(=O)(=O)NCCN2CCOCC2)cc1-c1nnc2c3ccccc3c(C)nn12
  1.9	0.29
Cc1ccc2cc3c(nc2c1)N(S(=O)(=O)c1ccccc1)CC3
  -3.3	-1.2
Cn1c(C(=O)NCc2cccs2)cc2sc(Cl)cc21
  /	-1.1
Cc1ccc(-c2nc3nc(C)cc(N(C)C)n3n2)cc1
  1.9	-2.1
Cc1ccc(C2C(=O)N(C3CCCCCC3)CC(=O)N2C2CCCCC2)cc1 (centres undefined)
  /	-0.4
Cc1ccc2nc(NC3=NCN(Cc4ccc5c(c4)OCO5)CN3)nc(C)c2c1
  -1.1	-0.95
CNCCNS(=O)(=O)c1cccc2cnccc12
  /	-0.4
CCc1nn2c(=O)cc(COc3ccc(C(C)C)cc3)nc2s1
  -0.93	-2.7
O=C(NCC1CCCO1)c1cnn(-c2ccccc2)c1-n1cccc1 (centres undefined)
  1.3	-0.39
CCC1CCCCN1CCCNC(=O)Cn1ncn2nc(-c3cccs3)cc2c1=O (centres undefined)
  0.36	-1.9
Cc1c(C(=O)N2CCOCC2)sc2nc3n(c(=O)c12)CCCC3
  1.7	/
CCOC(=O)C1CCN(Cc2cccc(NC(=O)c3cccs3)c2)CC1
  /	-0.91
CN1CCN(CCNC(=O)Cc2noc3ccccc23)CC1
  2.9	-0.29
CCc1nn2c(=O)cc(COC(=O)c3cccc(F)c3)nc2s1
  -1	/
Cc1cc(C)c2c(=O)[nH]c(SCC(=O)c3ccc(F)c(C)c3)nc2n1
  /	-8.8
CCCN(C(=O)Cn1ncc2c(=O)oc3ccccc3c21)c1ccc(F)cc1
  -0.98	-0.65
Cn1nc(-c2ccc(-c3ccnc(SCC(=O)Nc4ccccc4)n3)s2)cc1C(F)(F)F
  /	-1
CCc1nc2ccc(C(=O)NC(C)c3ccc4c(c3)OCCO4)cc2nc1CC (centres undefined)
  2.6	/
O=C(O)C1CCCCN1S(=O)(=O)c1ccc(Cl)s1 (centres undefined)
  /	-1.3
O=c1[nH]ncc2c3ccccc3n(Cc3ccc(Cl)cc3)c12
  0.22	-1.1
CC(C)OC(=O)c1cnn2c(C(F)(F)F)cc(-c3cccs3)nc12
  1.6	-0.22

# Complete entries, quoted from the list:
# `Cc1ccc2nc(NC3=NCN(Cc4ccc5c(c4)OCO5)CN3)nc(C)c2c1` is listed with HIV TAR-Tat = -1.1; CDC25B-CDK2 inh = -0.95
# `Cc1ccc(C2C(=O)N(C3CCCCCC3)CC(=O)N2C2CCCCC2)cc1` (centres undefined) is listed with HIV TAR-Tat = /; CDC25B-CDK2 inh = -0.4
# `CCn1cc(C2=NOC(C(=O)N3CCc4ccccc4C3)C2)c(C)n1` (centres undefined) is listed with HIV TAR-Tat = -0.02; CDC25B-CDK2 inh = -1.1

# Later entries
# The line under a structure holds: HIV TAR-Tat	CDC25B-CDK2 inh
O=c1c2c(nc(NCCO)n1-c1ccccc1)-c1ccccc1CC21CCCCC1
  /	0.83
O=C(Nc1ccc2c(c1)OCCO2)c1cnc2n(c1=O)CCS2
  /	0.49
CCc1c(C#N)c(SCC(=O)N2CCc3cc(OC)c(OC)cc3C2)nc2c1C(=O)CC(C)(C)C2
  0.49	2.8
O=C(NNC(=S)NCc1ccco1)c1cc(OCC(F)(F)F)nc(OCC(F)(F)F)c1
  /	0.98
CC1CC(C)CN(c2oc(/C=C/c3ccc(F)cc3)nc2C#N)C1 (centres undefined)
  1.9	9.8
Cc1csc2c(NC(C)C)ncnc12
  /	0.18
COc1ccc(-n2ncc(C(=O)N3CCCCC3)c2C)cc1
  /	-0.98
CC1CC(C)CN(c2nc(NCCCN3CCOCC3)nc(N)c2[N+](=O)[O-])C1 (centres undefined)
  0.75	/
Clc1cccc(-c2ccc(CNCc3ccccn3)o2)c1
  2	/
Cc1ccccc1-c1c(C)oc2c(CN(C)C)c(O)ccc2c1=O
  0.6	-0.06
Cc1ccc2oc(=O)c3cc(C(=O)N(CCCOC(C)C)Cc4ccco4)sc3c2c1
  /	-0.11
CCCCSc1ncc(CO)n1Cc1ccc(Cl)cc1
  1.2	/
CC(C)(C)CC1CCC(O)(C2CCN3Cc4ccccc4N=C23)CC1 (centres undefined)
  0.95	/
CCOC(=O)c1nc(Nc2ccccc2)c2ccccc2n1
  /	-0.24
O=C(O)c1ccc(NC(=O)c2ccc3c(c2)C(=O)N(CC2CCCO2)C3=O)cc1 (centres undefined)
  /	-2.5
CC1(C(=O)NC2CCCC2)CN(S(C)(=O)=O)CC(=O)N1c1ccc(F)cc1F (centres undefined)
  1.4	/
O=C(Nc1cccc(Cl)c1)c1cnc2sc3c(n2c1=O)CCCC3
  1.2	/
O=C(Nc1ccc(F)cc1F)c1cc(-c2ccc(Cl)cc2)on1
  /	-0.07
CC(C)Oc1ccc(C2CC(=O)N(c3ccc(C(=O)O)cc3)C2=O)cc1 (centres undefined)
  2.8	-1.8
CSc1ccc(C(Nc2ccccn2)c2ccc3cccnc3c2O)cc1 (centres undefined)
  /	0.04
O=C(CSc1nc(-c2ccccc2)nc2cc(=O)[nH]n12)Oc1ccccc1
  0.39	/
O=C(c1cccc(-c2nc(-c3ccccc3)no2)c1)N1CCN(Cc2ccc3c(c2)OCO3)CC1
  0.54	/
COc1ccc(-c2nc(SCc3cc(=O)n4nc(-c5ccccc5)sc4n3)n[nH]2)cc1
  0.9	/
Cc1ccc(-c2c(CN3CCN(Cc4ccc5c(c4)OCO5)CC3)csc2C)cc1
  2.7	/
NC(C(=O)N[C@@H]1C(=O)N2C(C(=O)O)=C(Cl)CS[C@H]12)c1ccccc1 (some centres undefined)
  /	-1.9
Cc1ccc(-n2ncc3c(N4CCCC4)ncnc32)cc1Cl
  1.5	/
CC1CCc2onc(C(=O)Nc3cc(Cl)ccc3O)c2C1 (centres undefined)
  2	/
Cc1cc(C)cc(NS(=O)(=O)c2ccc(-c3cc(C)[nH]n3)o2)c1
  2.1	/
CCCN1CCN(CCCNC(=O)c2oc3c(c2C)-c2[nH]ncc2CC3)CC1
  0.31	1.3
CCOc1ccc(C2c3c(-c4c(C)cc(C)cc4O)n[nH]c3C(=O)N2Cc2ccco2)cc1 (centres undefined)
  1.3	1.6
COC(=O)c1ccc(C(=O)OC)c(NC(=O)c2cccc(C(=O)Nc3cc(C(=O)OC)ccc3C(=O)OC)c2)c1
  /	-0.61
